V. cholerae QS: Vibrio cholerae quorum sensing activators, luminescence (AID 686977); V. cholerae quorum sensing reporter, luminescence, 6 h; higher luminescence means a stronger effect; most inactives read 0; luminescence at 50 µM unless noted; hits with a dose series show EC50 in µM; 9,400 tested, under 10 active;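 active = light above mean plus 3 SD and confirmed in a dose series; inconclusive = above that limit without a clear retest; inactive = below it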;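 note: raw light counts without normalisation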
* marks the source's active call; other numbers are inactive results; ? = inconclusive; [ ] = dose if it differs, or a comment. Some of the compounds tested, so the mix of outcomes need not match the whole.

SMILES	V. cholerae QS
CC(C)NCC(O)COc1ccc(COCCOC(C)C)cc1 (configuration not stated)	160[10 µg/mL]
O=C(CN1C(=O)COc2ccccc21)N(Cc1cccnc1)Cc1ccccc1F	0
Cc1ccccc1NC(=S)NC(=O)CCc1ccccc1	40
Cc1ccc(-n2ncc3c(NCCCN4CCOCC4)ncnc32)c(C)c1	40
O=C(C1CCCCN1S(=O)(=O)c1ccc(F)cc1)N1CCN(c2ccccc2F)CC1 (configuration not stated)	0
O=C(Nc1cccc(-c2cn3cccnc3n2)c1)c1ccc2c(c1)OCO2	0
COc1ccc(N2CCN(C(CNC(=O)c3ccco3)c3cccnc3)CC2)cc1 (configuration not stated)	0
CC(=O)Nc1nc(C)c(C(C)=O)s1	0
CC(C)[N+](C)(CCOC(=O)C1c2ccccc2Oc2ccccc21)C(C)C	40[10 µg/mL]
NC[C@H]1O[C@H](O[C@H]2[C@H](O)[C@@H](O[C@H]3O[C@H](CO)[C@@H](O)[C@H](N)[C@H]3O)[C@H](N)C[C@@H]2N)[C@H](O)[C@@H](O)[C@@H]1O	0[10 µg/mL]
CCN(CC)c1ccc(NC(=O)CC2Oc3ccccc3NC2=O)c(C)c1 (configuration not stated)	0
COc1cc(CNc2ccc3[nH]c(=O)[nH]c3c2)cc(Cl)c1OCC(=O)NC(C)(C)C	320
Cc1ccc(S(=O)(=O)NC(c2ccccc2)C(C)C(=O)n2nc(C)cc2C)cc1 (configuration not stated)	40
Nc1c(Br)cc(Br)cc1CNC1CCC(O)CC1 (configuration not stated)	0[10 µg/mL]
CC(C)(C)NCC(O)COc1cccc2c1CCC(=O)N2 (configuration not stated)	0[10 µg/mL]
CCC(C)[C@H](NC(=O)OC(C)(C)C)C(=O)N/N=C/C1=Cc2ccccc2OC1 (some centres not stated)	40
Nc1ccc(S(N)(=O)=O)cc1	40[10 µg/mL]
O=C(O)Cc1ccc(C(=O)c2ccccc2)s1	0
O=C(CN1CCOCC1)Nc1cccc(Br)c1	40
Cn1cc(SCC(N)=O)c2ccccc21	0
O=C(c1nn2cccnc2c1Cl)N1CCN(c2ccccc2)CC1	0
CCCCCOC(=O)CSc1nc2c(c(=O)[nH]c(=O)n2C)n1CCc1ccccc1	0
CCc1cccc(NC(=O)CS(=O)Cc2nc(-c3ccc(C)cc3)oc2C)c1 (configuration not stated)	0
COc1ccccc1NC(=O)C12CC3CC(C1)CC(c1ccc(C)cc1)(C3)C2	0
COc1ccc(NC(C#N)c2ccc(OC)cc2)cc1 (configuration not stated)	0
COc1ccc(OC)c(C(O)c2coc3ccc(O)c(CN(C)C)c23)c1 (configuration not stated)	0
CC(C)(C)NCC(O)COc1ccccc1C1CCCC1 (configuration not stated)	40[10 µg/mL]
CCOC(=O)C1Cc2ccccc2C(=O)O1 (configuration not stated)	0
COc1ccc(NC(=O)C2CCCN2S(=O)(=O)c2cccc3cccnc23)c(OC)c1 (configuration not stated)	0
Cc1ccc(-c2noc(C3CCCN(C(=O)C4CCCCC4)C3)n2)o1 (configuration not stated)	0
COC(=O)CN(c1ccc(F)cc1)S(=O)(=O)c1ccccc1	40
CC1=Nc2ccc(C)cc2N(Cc2ccccc2)C(=O)C1	0
CCn1cc(C2=NOC(C(=O)Nc3cc(OC)c(Cl)cc3OC)C2)c(C)n1 (configuration not stated)	0
CCN(CC)C(=O)c1scc2c1OCCO2	40
CC(C)(C)N1CC(c2nc3ccccc3n2Cc2ccccc2)CC1=O (configuration not stated)	40
CS(=O)(=O)N(Cc1ccccc1)c1ccc(C(=O)NCC2CCCO2)cc1 (configuration not stated)	40
CCCn1c2c(c(O)c(C(=O)Nc3ncccc3C)c1=O)CCCC2	0
CCn1c(=O)cc(OCC(=O)N2CCCC2)c2ccccc21	0
CCC1CCCCN1C(=O)CSc1nnc(CNC(=O)c2ccco2)o1 (configuration not stated)	40
O=C(c1cc2ccccc2oc1=O)N1CCN(c2ncccn2)CC1	40
CN1c2ccccc2-c2nc3ccccc3n2C1c1ccccn1 (configuration not stated)	0
O=C(NCc1ccc(F)cc1)c1cc2ccccn2n1	0
CC(C)Cn1c(N)c(C(=O)COC(=O)C2CCCCC2)c(=O)n(C)c1=O	0
CC(C)OC(=O)c1cc(C(=O)c2cc(F)ccc2O)coc1=N	0
O=C(O)CCN1C(=O)c2ccccc2C1=O	0
COc1ccc(N2CCN(C(=O)CCCn3c(=O)[nH]c4ccsc4c3=O)CC2)cc1	0
COc1cccc(/C=N/NC(=O)c2cc(C34CC5CC(CC(C5)C3)C4)[nH]n2)c1	40
CN(C)S(=O)(=O)N1CCN(c2ccccc2Cl)CC1	40
CCOC(=O)CSc1nnc(NCC(=O)OC)c(=O)[nH]1	40
CCCC(=O)Nc1nc2ccc(S(N)(=O)=O)cc2s1	40
CC(=O)N1CCN=C1SCc1ccccc1F	0
CCOC(=O)c1sc(NC(=O)c2ccccc2OC)nc1C	0
O=C1c2ccccc2C(=O)N1CSc1nnc2c3ccccc3n(CCc3ccccc3)c2n1	0
CCC(CC)C(=O)OCC(=O)NC12CC3CC(CC(C3)C1)C2	0
Cc1cnc(C(=O)NCCc2ccc(S(=O)(=O)NC(=O)NC3CCCCC3)cc2)cn1	0[10 µg/mL]
CC(=O)Nc1ccccc1OCC(=O)c1ccc2c(c1)OCO2	0
CNNCc1ccc(C(=O)NC(C)C)cc1	0[10 µg/mL]
CCOC(=O)N1CCN(c2c(N3CCC(N4CCCCC4)CC3)c(=O)c2=O)CC1	0
CCCC(=O)Nc1c(C(=O)OCC)[nH]c2ccccc12	40
O=C(COC(=O)C1CC(=O)N(c2ccc3c(c2)OCCO3)C1)NC1CCCc2ccccc21 (configuration not stated)	0
Next part.
SMILES	V. cholerae QS
O=C(CSc1cn(Cc2ccccc2)c2ccccc12)N1CCOCC1	0
Cc1cc(NC(=O)c2ccco2)ncc1NC(=O)CCc1ccccc1	0
CC1(C)CC2CC(C)(CN2C(=O)C23CCC(C)(C(=O)O2)C3(C)C)C1 (configuration not stated)	0
c1ccc2c(NCC3CCCO3)nc(-c3ccncc3)nc2c1 (configuration not stated)	0
C[C@@H]1C(=O)O[C@H]2CC34[C@H]5C[C@@H](C(C)(C)C)[C@]36[C@@H](OC(=O)[C@@H]6O)O[C@@]4(C(=O)O5)[C@]21O (some centres not stated)	0[10 µg/mL]
O=C(CCCN1C(=O)c2ccccc2C1=O)Nc1ccc(S(=O)(=O)N2CCCCC2)cc1	0
NC(=O)OCC(O)COc1ccc(Cl)cc1 (configuration not stated)	0[10 µg/mL]
Cc1ccsc1/C=N/NC(=O)CSCc1ccc(Cl)cc1	40
COCCOC(=O)c1c(C)n(C)c2ccc(OC(=O)N(C)C)cc12	0
Cc1ccc(-c2nn[nH]n2)cc1	0
CCN(CC)C(=S)SSC(=S)N(CC)CC	0[10 µg/mL]
COc1ccc2c(c1)CC/C(=C\Nc1ccc3c(c1)OCO3)C2=O	40
N#Cc1c2n(c3c(=O)n(CC(=O)c4ccc(Br)cc4)cnc13)CCCC2	0
O=c1oc2ccccc2c(NCc2cccc(F)c2)c1[N+](=O)[O-]	0
NC(=S)NNc1cccc(Cl)c1	40
Cc1ccc(-c2nn3c(C)nnc3s2)cc1NC(=O)C(C)C	0
O=C(Nc1c(C(=O)NCc2ccco2)cnn1-c1ccccc1)c1ccc(F)cc1	0
Cc1cc(C)nc(N2CCC(C(=O)O)CC2)n1	40
CC(=O)Nc1ccc(S(=O)(=O)N2CCN(CC(=O)NC3CCCC3)CC2)cc1	40
CCOc1ccc(Cc2nccc3cc(OCC)c(OCC)cc23)cc1OCC	280[10 µg/mL]
CCCCCC(C)n1[nH]c(=O)c2c(C)cc(C)nc21 (configuration not stated)	40
Cc1ccc2cccc(SCC(=O)N3CCOCC3)c2n1	40
CCC(CO)Nc1ncnc2c1cnn2-c1ccc(Cl)cc1 (configuration not stated)	40
CC(=O)c1c(N2CCCCC2)nc(=O)n(-c2ccccc2)c1C	0
CCOC(=O)N1CCC(N2Cc3cccc(C(=O)NCc4ccc(C)cc4)c3C2=O)CC1	0
COC(=O)c1[nH]c2cc(OC)ccc2c1NC(=O)c1ccc2c(c1)OCO2	?
CN(C)Cc1nc2c([nH]1)c(=O)n(C)c(=O)n2C	0
Cc1ccc(-n2nc(C)c3c(C)c(CCC(=O)NC(C)c4ccccc4)c(C)nc32)cc1 (configuration not stated)	0
Cc1c(/C(O)=C2\C(=O)C(=O)N(CCN(C)C)C2c2ccco2)cnn1-c1ccccc1 (configuration not stated)	0
CC(=O)N1CCCc2cc(S(=O)(=O)N(C)CCC#N)ccc21	0
COC(=O)C(C(=O)OC)C(C[N+](=O)[O-])c1ccc(OC)cc1 (configuration not stated)	0
O=C1Nc2ccc(Br)cc2C1=Nc1ccc(-c2nnc3n2CCCCC3)cc1	0
CSCC[C@@H](C(=O)Nc1ccc2c(c1)OCCO2)N1Cc2ccccc2C1=O	0
Fc1cc(Br)ccc1Nc1nc2ccccc2n2nnnc12	0
CC(=O)Nc1ccc(S(=O)(=O)N2CCc3c(Cl)cccc3C2)cc1	0
COC(=O)C1=C(N)c2c(F)cccc2C1(C#N)c1ccc(F)cc1 (configuration not stated)	40

Among those listed so far, these have an NH in an aromatic ring:
SMILES	V. cholerae QS
COc1cc(CNc2ccc3[nH]c(=O)[nH]c3c2)cc(Cl)c1OCC(=O)NC(C)(C)C	320
CCCCCOC(=O)CSc1nc2c(c(=O)[nH]c(=O)n2C)n1CCc1ccccc1	0
COc1ccc(N2CCN(C(=O)CCCn3c(=O)[nH]c4ccsc4c3=O)CC2)cc1	0
COc1cccc(/C=N/NC(=O)c2cc(C34CC5CC(CC(C5)C3)C4)[nH]n2)c1	40
CCOC(=O)CSc1nnc(NCC(=O)OC)c(=O)[nH]1	40
CCCC(=O)Nc1c(C(=O)OCC)[nH]c2ccccc12	40
Cc1ccc(-c2nn[nH]n2)cc1	0
CCCCCC(C)n1[nH]c(=O)c2c(C)cc(C)nc21 (configuration not stated)	40
COC(=O)c1[nH]c2cc(OC)ccc2c1NC(=O)c1ccc2c(c1)OCO2	?
CN(C)Cc1nc2c([nH]1)c(=O)n(C)c(=O)n2C	0

Some of these compounds in order of heavy-atom count, lowest first.
SMILES	V. cholerae QS
COC(=O)C(C(=O)OC)C(C[N+](=O)[O-])c1ccc(OC)cc1 (configuration not stated)	0
Cc1c(/C(O)=C2\C(=O)C(=O)N(CCN(C)C)C2c2ccco2)cnn1-c1ccccc1 (configuration not stated)	0
CCOC(=O)N1CCC(N2Cc3cccc(C(=O)NCc4ccc(C)cc4)c3C2=O)CC1	0

New compounds follow
SMILES	V. cholerae QS
CCCN(CCC)S(=O)(=O)c1ccc(C(=O)O)cc1	0[10 µg/mL]
Cc1ccc(CNC(=O)C2(C)Oc3ccccc3NC2=O)cc1 (configuration not stated)	0
N/C(=N\OC(=O)c1ccc(F)cc1)c1ccccc1	0
COc1cc(OC)cc(-c2cc3nc(C)c(CCC(=O)O)c(C)n3n2)c1	0
Cc1nc2ccc(NC(=O)c3sccc3C)cc2s1	0
CSc1nc(-c2ccccc2)ccc1C(N)=O	0
CCCc1nc(SCC(=O)c2ccccc2)c2c(=O)n(C)c(=O)n(C)c2n1	0
O=C(NCCc1cn2ccsc2n1)c1cccs1	0
Cc1ccc(-c2noc(CSc3ccccc3)n2)cc1	0
CCCc1ncc(C[n+]2ccccc2C)c(N)n1	0[10 µg/mL]
O=c1[nH]c2ccccc2n1CCCN1CCC(n2c(=O)[nH]c3cc(Cl)ccc32)CC1	0[10 µg/mL]
Cc1nn(S(=O)(=O)c2ccccc2)c(C)c1Sc1ccc([N+](=O)[O-])cc1	40
COC(=O)C(C)Sc1nnc(Cc2cc(=O)[nH]c(=O)[nH]2)n1-c1ccc(OC)cc1 (configuration not stated)	0
CC1CC(C)CN(CCCNC(=O)CC2Oc3ccccc3NC2=O)C1 (configuration not stated)	240
CN1CCN(CCCN2c3ccccc3Sc3ccc(Cl)cc32)CC1	0[10 µg/mL]
COc1ccccc1N1CCN(CC(=O)Nc2ccc(C)c(F)c2)CC1	0
CCCNCC(O)COc1ccccc1C(=O)CCc1ccccc1 (configuration not stated)	0[10 µg/mL]
CCOCCOC(=O)c1cccc(NC(=O)OCC)c1	40
Cc1ccc(S(=O)(=O)N2CCC(C(=O)N[C@@H](C)C(=O)Nc3ccc4c(c3)OCO4)CC2)cc1	40
CCCSc1nnc(-c2c[nH]c3ccccc23)n1CC	0
Cn1nc(-c2ccc(Cl)cc2)c2cc(C(=O)N3CCN(c4ccccc4)CC3)sc21	40
CCOC(=O)c1ccc(NC(=O)CSc2nc(C)nc3c2c(=O)n(C)c(=O)n3C)cc1	0
CCOC(=O)Cc1c(C)c2c(O)cc(O)cc2oc1=O	40
Cn1c(=O)cc(OCCCC(=O)NCCN2CCN(c3ccccc3F)CC2)c2ccccc21	0
COC(=O)CSc1nc2ccc(NC(=O)CSc3nnnn3Cc3ccccc3)cc2s1	0
COC(=O)c1cccc(N(C(=O)CNC(=O)c2ccco2)C(C(=O)NC2CCCC2)c2ccco2)c1 (configuration not stated)	0
Cc1cc(Nc2ccc(F)cc2Cl)n2nc(C)nc2n1	40
Cc1nc2ccccc2c2oc(C(=O)NCCN3CCCCC3C)cc12 (configuration not stated)	40
Cc1nc2nc(COc3ccccc3)[nH]n2c(=O)c1Cc1ccccc1	120
CCOC(=O)Cc1nnc(Nc2cccc(O)c2)c2ccccc12	0
CCOC(=O)N1CCN(C(=O)CS(=O)(=O)c2cn(Cc3ccc(Cl)cc3)c3ccccc23)CC1	0
Cc1nn(C(=O)c2ccc3c(c2)OCO3)c(N)c1-c1ccccc1	0
Brc1ccc(-c2nnc(-c3ccc4c(c3)OCO4)o2)o1	0
Cc1cccc(-n2cnc(C(=O)N/N=C/c3ccccc3)c2)n1	0
CCOC(=O)c1[nH]c(C)c(C(=O)NC)c1C	0
CCN(CC)C(=O)c1ccc(O)c(OC)c1	280[10 µg/mL]
CN(CC(=O)NCCC1=CCCCC1)S(=O)(=O)c1ccc2c(c1)c(=O)n(C)c(=O)n2C	0
Clc1ccc(Cn2ncc3c(NCc4cccnc4)ncnc32)cc1	200
COC(=O)CNC(=O)/C=C/c1ccc(OC)cc1	0
O=C(c1cc2c(s1)CCCCCC2)N1CCC2(CC1)OCCO2	0

High-throughput results: PubChem BioAssay, Southern Research Specialized Biocontainment Screening Center
